High-throughput results (PubChem)
CSC inhib – blocks cancer stem cells; inhibition, % at 7.5 µM; AID 2717; 300,000 tested, 1.1% active; cancer stem cell-like cells viability, luminescence;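 active means mean at 75% or more and at least half the replicates too; inconclusive means mean and replicates disagree; tested in HMLE shEcad cells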;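 further: 0% = median of negative and 100% = median of positive control wells; the first replicate is given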
eIF4H inh – inhibitors of RNA binding by human eIF4H. Q15056. eIF4H fluorescence polarization binding assay. inhibition, % at 35 µM. 290,000 tested, 0.94% active. AID 2012;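 active means 50% or more with normal probe brightness, or confirmed in later tests; inconclusive means above 50% with abnormal brightness, or retests that disagree; inactive means below 50% or failed in later tests; about a fifth of its hits are not listed in these tables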;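 further: calls also rest on retests at 20 µM and on dose response follow-up; 0% = protein and probe with vehicle and 100% = probe without protein; strong numbers were not always called active; many hits fall short of the cut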
Rce1 inh – inhibitors of yeast Ras-converting enzyme; calls only; 290,000 tested, 0.27% active; Q03530; yeast membranes, quenched prenylated peptide cleavage fluorescence;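 active means fall in fluorescence gain of 50% or more versus controls, with final raw signal at or below 3038400; inconclusive means same 50% fall but final raw signal above 3038400; inactive means fall in fluorescence gain under 50%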;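 further: plate controls were neutral control wells for no effect and wells lacking membranes for full effect; tested at 10 µM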
Target sequence (Q03530 whole entry, looked up): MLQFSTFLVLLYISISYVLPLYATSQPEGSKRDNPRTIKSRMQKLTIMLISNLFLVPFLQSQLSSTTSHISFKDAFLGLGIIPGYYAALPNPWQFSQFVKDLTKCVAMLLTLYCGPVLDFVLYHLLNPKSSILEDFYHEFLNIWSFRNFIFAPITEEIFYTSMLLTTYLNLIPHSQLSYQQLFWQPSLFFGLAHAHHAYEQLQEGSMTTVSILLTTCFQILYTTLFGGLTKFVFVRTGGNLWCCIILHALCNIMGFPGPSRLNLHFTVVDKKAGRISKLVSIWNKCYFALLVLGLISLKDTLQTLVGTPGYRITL
PABP FP inh – PABP-poly(A) binding inhibition; PABP-poly(A) RNA binding, fluorescence polarization; AID 2014; inhibition, % at 35 µM; P11940; 290,000 tested, 1% active;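 active means 50% or more with normal probe brightness, or confirmed in later tests; inconclusive means above 50% with abnormal brightness, or retests that disagree; inactive means below 50% or failed in later tests; about a fifth of its hits are not listed in these tables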;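 further: calls also rest on retests at 20 µM and on dose response follow-up; controls were probe without protein and protein plus probe with vehicle; some compounds called inactive have numbers as strong as hits; many hits fall short of the cut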
Target sequence (P11940 whole entry, looked up): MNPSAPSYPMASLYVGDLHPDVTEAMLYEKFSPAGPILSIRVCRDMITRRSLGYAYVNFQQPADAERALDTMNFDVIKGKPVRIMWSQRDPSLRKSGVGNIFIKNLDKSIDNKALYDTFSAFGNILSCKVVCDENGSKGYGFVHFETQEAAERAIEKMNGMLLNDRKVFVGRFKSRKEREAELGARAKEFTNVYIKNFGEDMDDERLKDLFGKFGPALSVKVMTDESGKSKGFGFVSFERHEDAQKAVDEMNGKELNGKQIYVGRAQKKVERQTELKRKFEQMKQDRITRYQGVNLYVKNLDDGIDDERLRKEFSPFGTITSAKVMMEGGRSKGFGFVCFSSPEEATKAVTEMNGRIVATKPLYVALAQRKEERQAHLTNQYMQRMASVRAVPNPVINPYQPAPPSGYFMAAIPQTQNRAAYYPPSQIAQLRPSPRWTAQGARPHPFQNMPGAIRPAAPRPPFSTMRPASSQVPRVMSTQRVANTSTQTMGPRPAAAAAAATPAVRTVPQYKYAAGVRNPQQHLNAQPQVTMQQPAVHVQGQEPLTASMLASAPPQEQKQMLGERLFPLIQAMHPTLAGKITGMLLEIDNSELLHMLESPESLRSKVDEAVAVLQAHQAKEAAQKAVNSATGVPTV
UUG fidelity – alters start codon recognition fidelity in yeast; 350,000 tested, 0.13% active; activity score, % at 18.7 µM; S. cerevisiae UUG-firefly luciferase reporter, luminescence/redox ratio; AID 602363;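 active means replicate mean at a twofold rise or more, about +100% in these data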;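 further: firefly luciferase made from a UUG start codon reports start codon fidelity; reporter light over untreated wells divided by growth signal over untreated wells; some hits fall short of that in this replicate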
HIV Env fusion – blocks HIV Env-driven cell-cell fusion | HeLa-JRFL Env/CEM21 cell fusion, luciferase | inhibition, % at 12.3 µM | 360,000 tested, 1.1% active | AID 651610;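 active means mean replicate inhibition score of at least 50 and every replicate individually at or above 50; inconclusive means only one of the two criteria met; inactive means mean below 50 and not all replicates reaching 50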;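 further: 0% = plate neutral controls and 100% = maraviroc near 300 nM; one replicate is shown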
MT1-MMP act inh – inhibitors of human MT1-MMP activation; AID 651647; 360,000 tested, 0.061% active; GFP/RFP ratio change, % at 20 µM; HT1080 RFP-PRO-GFP cells, GFP/RFP ratio fluorescence, overnight; percent of plate control window, DMSO zero; P50281;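 active means GFP/RFP ratio change of at least 30% with cell ATP level not reduced by more than half and red fluorescence within 50% of control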; further: strong numbers were not always called active
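Material: RFP-PRO-GFP reporter HT1080 cells. Dosing: single-point 20 µM compound, 1% DMSO. Controls: DMSO and RFP-L50D-GFP cell wells. Timing: cells overnight before dosing, compound overnight, 37 °C, 5% CO2. Measure: GFP/RFP fluorescence ratio.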
MT1-MMP act inh RFP – further read-out of MT1-MMP act inh, marked with its call; RFP signal change, %; measured here: RFP expression control read;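 0 = vehicle wells; hits needed this value within 50% of zero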
* marks the source's active call; other numbers are inactive results; i = inactive; u = inconclusive; x = not tested or not shown; & = joins results of further samples. Not all compounds are listed; rates above refer to the full screens.

SMILES	CSC inhib	eIF4H inh	Rce1 inh	PABP FP inh	UUG fidelity	HIV Env fusion	MT1-MMP act inh	MT1-MMP act inh RFP
COc1ccc(COC(=O)c2c(C)nn(-c3ccccc3)c2Cl)cc1	-4	-9	i	-5	11	1	-3	2
OC(CNCCc1ccc(Cl)cc1)COc1cc(Cl)ccc1Cl (stereo not drawn)	28	-4	i	-4	9	20	-1	-2
O=C1C=CC(=O)N1c1ccccc1N1C(=O)C=CC1=O	x	x	x	x	-20	-65	0	2
CCCCn1c(N)c(NCC)c(=O)[nH]c1=O	x	15	x	6	-1	4	-5	-2
CSC(=NCCCN1CCOCC1)NS(=O)(=O)c1cccs1	-15	-9	i	-5	1&4	9	2&1	1&3
O=C1NC2=C(CCc3ccccc32)C(c2ccccc2)N1 (stereo not drawn)	17	2	i	0	-3	9	-1	4
CC(C)N(C(=O)Cn1cc(S(=O)(=O)CC(=O)N2CCOCC2)c2ccccc21)C(C)C	-6	-14	i	-1	-7	-8	0	2
Cc1ccc(S(=O)(=O)N2CCCC2C(=O)N2CCCCCC2)cc1 (stereo not drawn)	1	-5	i	6	-15	x	-7	1
O=C(N1CCOCC1)N1CCN(S(=O)(=O)N2CCCCC2)CC1	-9	-13	i	-2	-14	x	-4	0
Cc1oc(-c2ccccc2F)nc1CSCC(=O)NCc1ccc2c(c1)OCO2	-5	-2	i	10	-11	24	4	-6
CN1CCN(c2ccc(NC(=O)COc3ccccc3Cl)cc2)CC1	36	0	i	-11	-5	x	2	1
C/C=C/c1c(F)c(F)c(Oc2ccc(C(=O)O)cc2)c(F)c1F	x	-3	i	-1	-18	-4	7	10
O=C(O)CCn1c(=O)c2ccccc2c2ccccc2c1=O	x	-10	i	5	-7	x	-3	-1
O/N=C(/c1ccc(Cl)cc1)C1CC1c1ccccc1 (stereo not drawn)	1	-6	i	4	-8	-6	1	-4
CN(CC(=O)Nc1ccccc1Oc1ccccc1)Cc1ccccc1F	91*	3	i	-20	x	20	-9	-8
CN(C)c1nc(SCC#N)nc(N2CCOCC2)n1	-8	-9	i	-2	x	x	4	-3
O=C(Nc1cc(Cl)ccc1N1CCCC1)C1=NN(c2ccccc2)C(=O)CC1	53	-16	i	7	-12	12	-6	-9
COc1cccc(Nc2nc3ccccc3nc2NS(=O)(=O)c2ccc(NC(C)=O)cc2)c1	20	-2	i	20	-7	x	0	3
COc1ccccc1CCNC(=O)C1CCC(=O)N(Cc2cccc(F)c2)C1 (stereo not drawn)	x	0	i	4	-17	-10	12	-3
COc1cc(Cl)c(C)cc1NC(=O)COC(=O)C(NS(=O)(=O)c1ccc(Cl)cc1)C(C)O (stereo not drawn)	-4	-6	i	-4	16	6	-8	-2

In the list so far, these contain a COOH group:
SMILES	CSC inhib	eIF4H inh	Rce1 inh	PABP FP inh	UUG fidelity	HIV Env fusion	MT1-MMP act inh	MT1-MMP act inh RFP
C/C=C/c1c(F)c(F)c(Oc2ccc(C(=O)O)cc2)c(F)c1F	x	-3	i	-1	-18	-4	7	10
O=C(O)CCn1c(=O)c2ccccc2c2ccccc2c1=O	x	-10	i	5	-7	x	-3	-1

Other results follow.
SMILES	CSC inhib	eIF4H inh	Rce1 inh	PABP FP inh	UUG fidelity	HIV Env fusion	MT1-MMP act inh	MT1-MMP act inh RFP
NC(=O)C1=C[C@@H](C2CCCCC2)C[C@@H](OCc2ccc(CO)cc2)O1	15	x	i	x	6	20	6	-10
COc1ccc(CCNC(=O)CN(c2ccccc2)S(C)(=O)=O)cc1OC	-10	1	x	2	-4	-237	0	2
COc1ccc(N2CCN(C(=O)c3cc(=O)c4cc(C)cc(C)c4o3)CC2)cc1	-19	-5	i	6	-5	17	0	0
CCCn1c(SCC(=O)NC2CCCC2)nc2c1c(=O)n(C)c(=O)n2C	7	-10	i	2	-7	2	10	2
NC(=O)C1(N2CCCCC2)CCN(Cc2ccccc2Cl)CC1	2	0	i	0	-16	-58	4	3
Cc1ccc(NC(NC(=O)c2ccccn2)C(Cl)(Cl)Cl)cc1 (stereo not drawn)	-11	6	i	4	-4	3	7	-3
CCOP1(=O)C=C(C(C)(C)C)OC1c1ccc(F)cc1 (stereo not drawn)	-22	6	i	3	-15	x	5	3
CCOC(=O)C(C(=O)N(C)Cc1ccccc1)C1CCCCC1 (stereo not drawn)	-1	5	i	-3	-16	-4	2	1
CC(C)NC(=O)C(=O)NC1CCCCCC1	-4	-6	i	-3	-10	x	0	1
Cc1cccc(NC(=O)C2CCCN(C(=O)NCc3ccccc3)C2)c1C (stereo not drawn)	-4	-7	i	4	-8	-14	3	4
CCCn1c(=O)c2[nH]cnc2n(-c2ccccc2C)c1=O	-2	7	i	7	x	1	3	7
Fc1ccc2nc3n(c2c1F)CCCCCC3	24	1	i	-5	-13	x	-6	-8
COc1cc(/C=C2\SC(=Nc3ccc(Cl)c(C(=O)O)c3)NC2=O)c(Br)c(Br)c1O	x	u	i	u	-6	-7	-36	59
O=C(N1CCC(O)(c2cccnc2)CC1)C12CC3CC(CC(C3)C1)C2	26	12	i	-16	-5	1	-1	4
C#CCn1c(=NC(=O)c2ccccc2[N+](=O)[O-])sc2cc(S(C)(=O)=O)ccc21	6	-1	i	5	x	x	1	6
O=S(=O)(N/N=C\c1ccc2c(c1)OCO2)c1ccc(F)cc1	-3	-5	i	-14	-10	14	5	-2
Cc1cccc2cc(CN(CCCN3CCOCC3)Cc3nnnn3C(C)(C)C)c(=O)[nH]c12	-1	-5	i	14	-3	-12	0	-2
CN(C)CCNC(=O)Cn1nc(-c2ccc(Cl)cc2)ccc1=O	-5	-3	i	-3	x	x	-1	-2
Brc1cc2c(cc1C1Nc3ccccc3C3C=CCC31)OCO2 (stereo not drawn)	-11	-5	i	-16	x	15	-5	3
O=C1C=C(NCc2ccc(Cl)cc2Cl)C2(CCCCC2)O1	-1	2	i	-6	-7	22	2	0
Cn1c(SCC(=O)N2CCc3ccccc3C2)nnc1-c1ccncc1	-17	11	i	4	-18	x	-2	4
Cc1cc(C)c(NC(=O)CS(=O)CC(=O)NCCCc2ccccc2)c(C)c1 (stereo not drawn)	-12	-9	i	-10	3	x	4	-1
O=C(NNC1=NCCC1)c1cccc(S(=O)(=O)N2CCCC2)c1	3	-3	i	-1	-11	5	0	5
CCCCCc1nnc(NC(=O)CN2C(=O)C3CCCCC3C2=O)s1 (stereo not drawn)	-1	-6	x	-5	12	-7	6	-3
Cc1ccc(C)c(C(=O)CCC(=O)Nc2cccnc2)c1	-2	-4	i	-11	-10	-13	2	-2
Brc1ccccc1-c1csnn1	-14	5	i	1	-8	x	10	5
O=C(C1=C(O)C(=O)N(CCN2CCOCC2)C1c1cccc(F)c1)c1cc2ccccc2o1 (stereo not drawn)	-1	12	i	4	-28	-1	-6	2
COc1ccc([N+](=O)[O-])cc1N(CC(O)CN1CCCCC1)S(=O)(=O)c1ccccc1 (stereo not drawn)	-9	13	i	-10	x	-34	-1	1
Cc1nnc2ccc(-c3ccc(NS(=O)(=O)c4ccccc4[N+](=O)[O-])cc3)nn12	13	x	x	x	-20	-26	4	7
Cn1nnc(C(O)CN2CCOCC2)n1 (stereo not drawn)	-3	2	i	-2	-15	x	-3	0
COc1cccc(C(=O)Nc2ccc(NC(=O)C3C4C=CC(C4)C3C(=O)O)cc2)c1 (stereo not drawn)	7	-2	i	2	0	-12	2	-8
CCc1c(C)sc(NC(=O)c2ccccc2[N+](=O)[O-])c1C(N)=O	-14	-2	i	-8	x	12	3	1
COc1ccc(NCC(=O)NN=C2CCS(=O)(=O)c3ccc(F)cc32)cc1	-13	x	x	x	-17	x	7	10
COc1ccc(S(=O)(=O)N2CCC(C(=O)NCCc3ccc4c(c3)OCO4)CC2)cc1	-13	-2	i	0	-23	17	0	-4
COc1ccc(C(=O)C2CCCN(Cc3cccc4c3OCO4)C2)cc1OC (stereo not drawn)	69	-6	i	2	0	8	-4	-4
Cc1ccc(S(=O)(=O)N2CCCCC2)cc1C(=O)N1C(C)CCCC1C (stereo not drawn)	12	x	x	x	-12	x	3	-6
Cc1c(NC(=O)CSc2ncnc3ccccc23)c(=O)n(-c2ccccc2)n1C	x	8	i	9	-13	-3	-2	2
Cc1csc2nc(O)c(C(=O)NCCCN3CCCC3=O)c(=O)n12	-10	x	i	x	-12	-136	4	2
Cn1c(=O)n(C)c2cc(N3CCOCC3)c(NC(=O)c3ccc(F)cc3)cc21	-11	8	i	6	-20	3	1	-2
CCOC(=O)CNC(=O)Cn1cnc2c(nnn2-c2ccc(C)cc2)c1=O	-4	-4	i	10	x	-12	-1	3
N#Cc1cccc(-n2nnnc2-c2ccccn2)c1	0	1	i	10	-15	-83	0	1
N=C1C(c2ccccc2)=C(O)CN1c1cccc(S(=O)(=O)N2CCOCC2)c1	-19	-8	i	-4	-31	7	6	7
Cc1cc(C(F)F)n2nc(C(=O)Nc3ccc(F)cc3F)nc2n1	-7	3	i	-4	-3	x	7	3
OCCNc1nc(C2CC2)nc2c1nnn2Cc1ccccc1Cl	x	-4	i	3	-8	10	3	1
Cn1c(-c2c(N)n(-c3ccccc3)c3nc4ccccc4nc23)nc2ccccc21	4	12	i	-5	6	x	-19	-3
O=C(NC(=S)NNC(=O)c1ccccc1O)c1ccccc1	21	19	i	-10	-3	6	4	-4
O=C(OCC(=O)N1CCN(c2ccccc2)CC1)c1ccc(O)cc1O	10	-3	i	6	-18	4	0	-1
CC(C)Nc1ncnc2c1nnn2Cc1ccccc1	-15	6	i	-6	-5	-18	4	3
COc1cc(OC)c(C(=O)NC2CCCCCC2)cc1OC	x	5	i	4	5	-11	6	-1
NC(=O)c1ncn([C@@H]2O[C@H](CN=C3NS(=O)(=O)c4ccccc43)[C@@H](O)[C@H]2O)n1	x	x	x	x	-13	-7	2	6

(further entries)
SMILES	CSC inhib	eIF4H inh	Rce1 inh	PABP FP inh	UUG fidelity	HIV Env fusion	MT1-MMP act inh	MT1-MMP act inh RFP
COc1cccc(NC(=O)c2cc3ccccc3oc2=O)c1	-2	-3	i	0	-26	-114	-3	-2
CCC(C(=O)NC1CCCC1)N(Cc1ccc2c(c1)OCO2)C(=O)c1snc(C(N)=O)c1N (stereo not drawn)	2	5	i	1	10	x	1	0
CN1CCC(N(C)S(=O)(=O)c2ccc(NC(=O)Cc3ccc(F)cc3)cc2)CC1	x	x	x	x	-22	-7	-4	-3
O=C(c1ccco1)N1CCN(c2ccc([N+](=O)[O-])cc2F)CC1	-1	-4	i	-6	-9	-13	4	-2
CCN1CCCc2cc(CN(CCN3CCOCC3)C(=S)Nc3ccc(OC)c(Cl)c3)ccc21	-11	-2	i	33	x	6	2	-4
COc1ccccc1NS(=O)(=O)c1cc(NC(=O)c2sc3cc(Cl)ccc3c2Cl)ccc1C	-6	-10	x	4	x	4	1	-1
O=C(COc1ccc2ccccc2c1)NNC(=O)Cc1cccc2ccccc12	3	6	i	8	-19	-35	8	2
CC1=NN(/C(=N\c2nnc(C)s2)Nc2ccc(C(C)(C)C)cc2)[C@H](c2ccc(C)cc2)S1	52	-4	i	2	-24	u	-21	-19
CCOC(=O)c1sc2nc(C)cc(C)c2c1N	-8	-6	i	-5	-7	-43	-2	2
Cc1ccccc1COC(=O)c1nn(-c2ccccc2)nc1N	x	-3	i	3	x	-27	-2	1
Nc1nnc(Cc2ccccc2F)s1	-18	-2	i	4	x	-11	-2	-1
CCCC(=O)N(Cc1cc(=O)[nH]c2ccccc12)c1ccc(OC)cc1	-12	-1	i	-12	x	1	-5	-2
